Screening data as filed in PubChem BioAssay.
TRPV1 potentiator: human TRPV1 potentiation; Q8NER1; TRPV1-expressing cells, Fluo-8 calcium influx, capsaicin EC20 potentiation; host cell line not named in the record; control for the full effect not named in the record; potentiation, % at 8.33 µM; 320,000 compounds, 0.02% hits; active means potentiation above 80%; inconclusive means 30% to 80%; inactive means below 30%; also: 0% is about no effect
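TRPV1-expressing cells were cultured overnight at 35.5C and loaded with Fluo-8 calcium dye for 40 to 90 min at room temperature. After a 10 s baseline, compound was added and calcium influx was read kinetically for 3 min (ex 480/em 520 nm).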
gsp agonist: agonists of gsp mutant (McCune-Albright syndrome) | gsp mutant cells, cAMP HTRF, 30 min; control for the full effect not named in the record | Potency, µM (highest dose often 76.9 µM), inactives show at the top dose activation (cAMP increase), usual class: activators | 340,000 compounds, 0.13% hits; active = well fitted activation curve with a large enough effect; inconclusive = small, poorly fitted or top-dose-only effect, or another doubt; inactive = no such curve, though single readings can be large or run the other way; cell line not stated here;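 also: phosphodiesterase inhibitor Ro 20-1724 added with compounds to block cAMP breakdown; potency is read from the fitted curve at half-maximal effect; nearly all actives have a fitted effect of over 60% in size; about a fifth of the inactives were tested at one dose only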
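Cells stably selected in G418 were plated at 2000/well, grown 16-24 hr, then given compounds in DMSO with the PDE inhibitor […] (300 uM solution added) for 30 min at 37C; cAMP was read by HTRF.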
ClpP mod: qHTS Assay for Activators of ClpP | purified B. subtilis ClpP, FRET peptide cleavage, 20 min | Potency, µM (highest dose often 57.5 µM), for inactives: at the top dose activity change, negative = active | 340,000 compounds, 1.9% hits; active = well fitted falling curve with a large enough effect; inconclusive = small, poorly fitted or top-dose-only effect; inactive = no such curve, though single readings can be large or run the other way; also: potency is read from the fitted curve at half-maximal effect; the source files actives as falling curves though it sought activators and does not explain the sign; nearly all actives have a fitted effect of over 65% in size; many hits overshoot -100%
Target sequence (P80244 whole entry, looked up): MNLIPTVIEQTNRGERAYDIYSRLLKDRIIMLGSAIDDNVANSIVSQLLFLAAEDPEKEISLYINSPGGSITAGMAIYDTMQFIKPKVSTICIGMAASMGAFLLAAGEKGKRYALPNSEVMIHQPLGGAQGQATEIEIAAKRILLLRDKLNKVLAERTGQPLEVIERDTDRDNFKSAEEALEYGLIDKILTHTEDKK
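Buffer: 100 mM Tris/HCl pH8, 100 mM KCl, 0.05% low protease BSA, 2.5% glycerol, 0.01% Tween-20. ClpP 10 microg/mL final; 20 min RT; delta FRET normalized to ADEP and DMSO controls.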
TRPML1 inh: blocks the human TRPML1 channel; 390,000 compounds, 0.02% hits; TRPML1-inducible cells, Ca2+ dye fluorescence, FDSS; stronger effect = lower value; inhibition of EC80 agonist-evoked calcium signal; activity change, negative = inhibition, % (no concentration beside the values); in the data active means activity change below about -50%; inconclusive means about -30% to -50%; inactive means above about -30%;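 also: stimulus is agonist 54-4 at its EC80 concentration; % is scaled to controls: 0 for no effect and ±100 for the full control effect; compound concentration not given in the record; the text of the record puts the active cut at -80%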
Target sequence (Q9GZU1 whole entry, looked up): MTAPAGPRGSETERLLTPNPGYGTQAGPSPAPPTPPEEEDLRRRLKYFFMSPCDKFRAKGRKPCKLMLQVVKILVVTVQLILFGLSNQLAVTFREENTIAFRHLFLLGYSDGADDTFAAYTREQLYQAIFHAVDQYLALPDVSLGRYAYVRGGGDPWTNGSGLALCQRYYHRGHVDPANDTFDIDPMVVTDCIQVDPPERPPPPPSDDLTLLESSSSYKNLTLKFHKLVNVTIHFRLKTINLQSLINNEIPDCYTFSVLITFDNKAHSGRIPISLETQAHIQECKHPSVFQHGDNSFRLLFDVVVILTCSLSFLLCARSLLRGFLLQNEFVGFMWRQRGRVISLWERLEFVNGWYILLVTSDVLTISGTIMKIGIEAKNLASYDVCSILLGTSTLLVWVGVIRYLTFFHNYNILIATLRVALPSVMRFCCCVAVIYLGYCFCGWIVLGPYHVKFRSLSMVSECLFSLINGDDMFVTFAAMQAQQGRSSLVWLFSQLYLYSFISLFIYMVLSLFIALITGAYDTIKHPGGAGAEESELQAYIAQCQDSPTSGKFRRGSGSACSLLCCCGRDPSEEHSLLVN
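Tet-induced TRPML1-DL cells loaded with Ca8 no-wash calcium dye were read kinetically on FDSS. Compound addition was followed by EC80 agonist 54-4 (4 uM final); inhibition was read over 110 s.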
Sfp inh: blocks B. subtilis Sfp PPTase activity; Q9F4F7; Biochemical Sfp PPTase activity, qHTS; Potency, µM, without a hit: max response, negative = inhibition, actives largely listed as inhibitors; 310,000 compounds, 3.5% hits; AID 1490; active = well fitted inhibition curve with a large enough effect; inconclusive = small, poorly fitted or top-dose-only effect, or another doubt; inactive = no such curve, though single readings can be large or run the other way;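 also: the enzyme is Sfp with the accession as filed and its product quenches rhodamine fluorescence; potency is read from the fitted curve at half-maximal effect; 0% = enzyme reaction without inhibitor and -100% = no enzyme wells; top concentration of the series not given in the record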
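Step 1, compound plus 15 nM Sfp-PPTase, 15 min, room temperature. Step 2, add rhodamine-CoA (5 uM) and BHQ-2-YbbR (12.5 uM). Step 3, read 525/598 nm fluorescence at 0 and 30 min.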
gsp antagonist: antagonizes gsp, the McCune-Albright syndrome mutation; AID 624288; Potency, µM (doses to about 76.9 µM), inactives show at the top dose activity change, negative = inhibition, actives largely listed as inhibitors; 340,000 compounds, 0.4% hits; gsp-mutant cells, cAMP HTRF, 30 min; control for the full effect not named in the record; active = falling curve of any shape with a large fitted effect; inconclusive = falling curve, mostly with a smaller effect; inactive = flat or rising curve; cell line not stated here;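 also: intracellular cAMP measured with PDE inhibitor Ro 20-1724 present during compound exposure; potency is read from the fitted curve at half-maximal effect; % is scaled to controls: 0 for no effect and ±100 for the full control effect; nearly all actives have a fitted effect of over 65% in size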
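Measurement of cellular cAMP by homogeneous time-resolved fluorescence following a 30 min compound exposure at 37C. The PDE inhibitor […] was present throughout; the assay buffer was DPBS with 0.05% BSA and 0.005% Tween 20.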
Menin MLL FP FL: menin-MLL binding inhibition, fluorescein peptide; Fluorescence polarization, fluorescein-MLL peptide displacement from menin; FP activity change, % at 61.4 µM; 290,000 tested, under 10 active; inconclusive = falling polarisation curve, or a change in total fluorescence; inactive = total fluorescence flat and polarisation flat or rising; no compound was filed as active; the % refers to the polarisation; negative = inhibition;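 also: % of control where 0% means no effect; inhibitors lower the polarisation; unlabelled MLL peptide was the positive control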
The depositor's hits bear a star; ? = inconclusive; / = no result given; & = joins results of further samples; [ ] = another dose, or the depositor's remark. Rows were taken by chance, and some 4.9% of all compounds hit somewhere here.

SMILES	TRPV1 potentiator	gsp agonist	ClpP mod	TRPML1 inh	Sfp inh	gsp antagonist	Menin MLL FP FL
COc1ccccc1N(C(=O)CNS(=O)(=O)c1ccccc1)C(C(=O)NCc1ccco1)C(C)C (stereo not given)	12	1%	-2.0%	-13	-8%	-21%	-1.5
Cc1onc(-c2ccccc2)c1C(=O)OCCOc1cccc(Cl)c1	10	6%	-2.1%	16	0%	0%	/
COc1cccc(C(=O)Nc2c(F)cccc2F)c1	1	-3%[15.4 µM]	/	13	17%	10%	1.9
CCOC(=O)CSC1=NN2CCS(=O)(=O)N=C2S1	4	-8%[15.4 µM]	/	2	12%	/	-6.7
CC(NC(=O)c1ccccc1C(=O)O)c1ccc(-n2ccnc2)cc1 (stereo not given)	18	-20%	1.1%	-4	15%	5%	0.3
CCOC(=O)c1c(C)n(-c2ccc(C)cc2)c2ccc(OCC(O)CNCC3CCCO3)cc12 (stereo not given)	-2	1%	-6.9%	-13	45µM*	18%	1.9
CCOc1ccc(C(=O)NCCCCNC(=O)c2ccc(OCC)cc2)cc1	1	2%[15.4 µM]	-5.3%	-14	-3%	1%	-0.3
O=C(COC(=O)C1CCN(S(=O)(=O)c2cccs2)CC1)Nc1ccc(F)cc1Cl	/	1%[15.4 µM]	-2.0%	23	/	-7%	/
O=C(Cc1cccc2ccccc12)N/N=C/c1ccc(Sc2nc3ccccc3s2)o1	9	-28%	-3.4%	13	19%	-21%	7.0
COC(=O)CN(C)C(=O)c1cccc(OC2CCN(S(=O)(=O)N(C)C)CC2)c1	7	-51%[inhibitor]	/	-4	5%	7%	4.1
COc1ccc(C(=O)c2ccc(CC(=O)O)s2)cc1	6	?	-0.7%	18	13%	8%	0.8
CCOc1cccc(NC(=O)/C(C#N)=C/c2cccnc2)c1	-3	-7%	-0.3%	27	15%	7%	0.4

Entries above that bear a hit mark in Sfp inh:
structure | gsp agonist | TRPML1 inh | Sfp inh | gsp antagonist | Menin MLL FP FL
CCOC(=O)c1c(C)n(-c2ccc(C)cc2)c2ccc(OCC(O)CNCC3CCCO3)cc12 (stereo not given) | 1% | -13 | 45µM* | 18% | 1.9

(further entries)
SMILES	TRPV1 potentiator	gsp agonist	ClpP mod	TRPML1 inh	Sfp inh	gsp antagonist	Menin MLL FP FL
Cc1nn(C)c(C)c1NC(=O)CN1CCC(O)(c2ccc3c(c2)OCO3)CC1	2	10%	1.0%	-6	2%	5%	0.6
Cc1nnc(SCC(=O)Nc2cc(C(N)=O)cc(C(N)=O)c2)n1-c1ccccc1	9	-59%[inhibitor]	/	20	-5%	8%	1.4
COc1ccc(CCN2C(=O)CC(N3CCOCC3)C2=O)cc1 (stereo not given)	11	-27%	0.7%	-12	8%	-5%	-7.1
COCC(=O)NNS(=O)(=O)c1ccccc1[N+](=O)[O-]	-3	1%	-2.1%	24	3%	-16%	6.3
O=C(O)c1ccccc1OC(=O)C12CC3CC(CC(C3)C1)C2	5	2%[15.4 µM]	/	4	19%	-4%	2.6
O=C(NCCCn1ccnc1)Nc1ccc(Cl)cc1	-38	-9%	-2.0%	-20	-11%	13%	-6.2
CCOC(=O)N1CCN(C(=O)CN(c2cccc(C(F)(F)F)c2)S(C)(=O)=O)CC1	3	-4%	-0.7%	20	15%	-1%	1.6
Cc1cc(=O)oc2cc(OCC(=O)Nc3nnc(C4CC4)s3)ccc12	1	-3%[15.4 µM]	/	-15	10%	-2%	1.9
COc1ccc2c(c1)C1CC(C)(NC(=O)C1S(=O)(=O)c1ccc(F)cc1)O2 (stereo not given)	-4	?	2.0%	0	6%	5%	4.1
Cc1ccccc1Nc1ncnc2c1cnn2-c1ccccc1	9	-1%	-4.2%	2	?	0%	-2.2
COc1cccc(NC(=O)CN(C)S(=O)(=O)c2ccc3c(c2)CCC(=O)N3)c1	-7	?	-1.0%	6	4%	5%	-9.1
CCC(=O)c1cc(-c2nc3ccccc3n2C)n(C)c1	-2	-15%	-1.6%	-12	-8%	16%	1.3

Just Menin MLL FP FL and ClpP mod, for seven of the compounds above:
| molecule | Menin MLL FP FL | ClpP mod |
| --- | --- | --- |
| Cc1nnc(SCC(=O)Nc2cc(C(N)=O)cc(C(N)=O)c2)n1-c1ccccc1 | 1.4 | / |
| COCC(=O)NNS(=O)(=O)c1ccccc1[N+](=O)[O-] | 6.3 | -2.1% |
| CCC(=O)c1cc(-c2nc3ccccc3n2C)n(C)c1 | 1.3 | -1.6% |
| O=C(O)c1ccccc1OC(=O)C12CC3CC(CC(C3)C1)C2 | 2.6 | / |
| Cc1ccccc1Nc1ncnc2c1cnn2-c1ccccc1 | -2.2 | -4.2% |
| COc1ccc(CCN2C(=O)CC(N3CCOCC3)C2=O)cc1 (stereo not given) | -7.1 | 0.7% |
| COc1ccc2c(c1)C1CC(C)(NC(=O)C1S(=O)(=O)c1ccc(F)cc1)O2 (stereo not given) | 4.1 | 2.0% |

More structures follow:
SMILES	TRPV1 potentiator	gsp agonist	ClpP mod	TRPML1 inh	Sfp inh	gsp antagonist	Menin MLL FP FL
CC(NC(=O)Nc1ccccc1)C(c1cccs1)N1CCN(c2ccccc2)CC1 (stereo not given)	-11	-65%[inhibitor]	0.2%	1	-2%	-4%	-2.7
CCCCn1c(N)c(N(CCOC)C(=O)CSCc2c(C)noc2C)c(=O)[nH]c1=O	6	4%	-2.3%	-4	18%	7%	/
Cc1cccnc1NC(=O)CCNS(=O)(=O)c1ccc2c(c1)c(=O)n(C)c(=O)n2C	-5	13%	/	-1	22%	9%	3.0
Cc1c(Nc2nc3ccccc3n3cnnc23)cccc1[N+](=O)[O-]	-10	?	0.1%	/	-1%	7%	16
CCOC(=O)C1CCCN(CC(=O)Nc2ccc(C(=O)Nc3ccccc3OC)cc2)C1 (stereo not given)	3	-30%[inhibitor]	-5.1%	-2	/	-13%	/
CCOc1ccccc1NC(=O)CCc1nnc2ccc(NCc3ccco3)nn12	16	?	0.4%	-7	6%	-20%	/
COc1ccc(/C=N/NC(=O)c2sc3nc(C)cc(C)c3c2N)cc1	-15	?	/	-9	9%	-9%	2.3
O=C(NCCOc1ccccc1F)C1CCC(=O)N(CCc2cccc(F)c2)C1 (stereo not given)	29	14%	1.0%	0	7%	8%	/
COCCCNC(=O)c1ccccc1-c1cc(C)no1	4	8%[15.4 µM]	-1.3%	-9	18%	1%	4.5
OC(CNC1CCCC1)COc1ccc(Cl)cc1 (stereo not given)	-7	-21%	/	-7	-2%	13%	-3.4
Cc1cc(C)n(-c2nc3c(c(=O)[nH]c(=O)n3C)n2Cc2cccc(Br)c2)n1	8	-13%	0.4%	-1	6%	-7%[15.4 µM]	7.4
CC(C(=O)O)N1c2cccc3cccc(c23)S1(=O)=O (stereo not given)	3	-36%	/	24	2%	9%	-1.2
COCCN1C(=O)C(CC(=O)Nc2ccc(C(C)=O)cc2)SC1=Nc1ccccc1 (stereo not given)	-9	-2%&23%	-4.0%	7&-6	2%	-27%&-6%	1.0
COc1cc(C#N)c(NC(=S)N2CCOCC2)cc1OC	2	/	/	/	-19%	/	-1.7
Cc1cc(CNC(=S)Nc2ccc(Br)cc2Cl)nn1C	-22	-35%[inhibitor]	-1.6%	19	-10%	-12%	-4.0
CCOC(=O)c1cnc2ccccc2c1Nc1cc(C(=O)O)ccc1C	12	-6%[15.4 µM]	/	7	24%	-17%	-14
CCSc1ccccc1C(=O)Nc1ccc2c(c1)OCO2	4	-13%	0.9%	-7	?	-9%	0.7
COc1cccc(C(=O)Nc2ncc3c(n2)CC(c2ccc(OC)cc2OC)CC3=O)c1 (stereo not given)	0	16%	-2.2%	-5	2%	9%	0.3
Clc1ccc2[nH]c(-c3ccccc3)cc2c1	8	-3%	28µM*	26	8%	-14%	1.9
Cc1cc(Nc2ccccc2)n(C(=O)c2ccc(N)cc2)n1	6	-9%	3.1%	8	-9%	-3%	0.9
CCCNC(=O)Nc1nc2ccccc2s1	13	-31%[inhibitor]	-0.1%	10	10%	18%	1.2
CS(=O)(=O)N(CC(=O)Nc1ccccc1Sc1ccccc1)C1CCCCC1	-2	5%	0.7%	0	-2%	-14%	2.2
O=C(CN1C(=O)C2CC=C(Cl)CC2C1=O)NCc1ccccc1 (stereo not given)	-14	?	-15%	-3	-10%	-7%	?
Cc1cccc(-c2ccc3c(c2)C2CC3CCN2C)c1 (stereo not given)	/	/	-0.3%	39	/	-3%	/
Cc1cc(NC(=O)CSc2ccc(-c3ccc(Br)cc3)nn2)no1	-12	20%	2.0%	-13	-7%	6%	/
Cc1ccc(C(=O)NCC(=O)N(C)Cc2cccc(F)c2)s1	1	-10%[15.4 µM]	-2.4%	-18	/	11%	/
CC(NC(=O)c1cnccn1)c1ccc(S(N)(=O)=O)cc1 (stereo not given)	-5	-5%	-1.1%	/	3%	15%	2.6
CN1C(=O)C2(C(C#N)=C(N)Oc3c2oc(CO)cc3=O)c2ccccc21 (stereo not given)	-1	-51%[inhibitor]	1.0%	21	14%	7%	0.8
O=c1c2ccccc2nc2n1C(CSc1ccc(Br)cc1)CN2 (stereo not given)	/	-4%	-1.1%	-22	-5%	3%	0.7
N#CC(=C=[N-])c1nc2ccccc2nc1-[n+]1cccc(NC(=O)c2ccccc2)c1	-15	-50%[inhibitor]	2.6%	32	8.9µM*	-2%	?
CCCCc1nnc(NC(=O)Cn2cnc3ccccc3c2=O)s1	2	10%[15.4 µM]	-2.7%	17	20%	1%	-0.5
COc1ccc(N(C)S(=O)(=O)c2cccc(C(=O)Nc3nc(C)c(C(C)=O)s3)c2)cc1	-11	-25%	-2.1%	21	/	?	/
C(=C\c1nnc2c3ccccc3ncn12)/c1ccccc1	9	20%	?	-8	?	9%	6.4
CCCc1cc(=O)oc2cc(OCc3ccc(OC)cc3)c(Cl)cc12	-5	-2%	3.6%	17	2%	1%	4.8
O=C1NC(NS(=O)(=O)c2ccccc2)(C(F)(F)F)C(=O)N1c1cccc(Cl)c1 (stereo not given)	9	?	/	-6	-3%	6%	/
CCN(c1ccccc1)C1(O)C(=O)c2ccccc2C1=O	0	14%	/	-12	1%	9%	-1.3
